Source: PubChem (National Center for Advancing Translational Sciences (NCATS))
gsp agonist – gsp mutant agonism; gsp mutant cells, cAMP HTRF, 30 min; control for the full effect not named in the record; actives 0.13% (n = 340,000); Potency, µM (highest dose often 76.9 µM), without a hit: at the top dose activation (cAMP increase), most hits filed as activators; active = well fitted activation curve with a large enough effect; inconclusive = small, poorly fitted or top-dose-only effect, or another doubt; inactive = no such curve, though single readings can be large or run the other way; cell line not stated here;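 further: phosphodiesterase inhibitor Ro 20-1724 added with compounds to block cAMP breakdown; potency means the concentration at half of the fitted maximal effect; nearly all actives have a fitted effect of over 60% in size; about a fifth of the inactives were tested at one dose only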
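Cells stably selected in G418 were plated at 2000/well, grown 16-24 hr, then given compounds in DMSO with the PDE inhibitor […] (300 uM solution added) for 30 min at 37C; cAMP was read by HTRF.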
TRPML1 blocker – human mucolipin-1 channel inhibition; TRPML1-inducible cells, Ca2+ dye fluorescence, FDSS; stronger effect = lower value; inhibition of EC80 agonist-evoked calcium signal; activity change, negative = inhibition, % (no concentration beside the values); actives 0.02% (n = 390,000); in the data active means activity change below about -50%; inconclusive means about -30% to -50%; inactive means above about -30%;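 further: stimulus is agonist 54-4 at its EC80 concentration; on the % scale 0 is the no-effect control and ±100 the full control effect; compound concentration not given in the record; the text of the record puts the active cut at -80%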
Target sequence (Q9GZU1 whole entry, looked up): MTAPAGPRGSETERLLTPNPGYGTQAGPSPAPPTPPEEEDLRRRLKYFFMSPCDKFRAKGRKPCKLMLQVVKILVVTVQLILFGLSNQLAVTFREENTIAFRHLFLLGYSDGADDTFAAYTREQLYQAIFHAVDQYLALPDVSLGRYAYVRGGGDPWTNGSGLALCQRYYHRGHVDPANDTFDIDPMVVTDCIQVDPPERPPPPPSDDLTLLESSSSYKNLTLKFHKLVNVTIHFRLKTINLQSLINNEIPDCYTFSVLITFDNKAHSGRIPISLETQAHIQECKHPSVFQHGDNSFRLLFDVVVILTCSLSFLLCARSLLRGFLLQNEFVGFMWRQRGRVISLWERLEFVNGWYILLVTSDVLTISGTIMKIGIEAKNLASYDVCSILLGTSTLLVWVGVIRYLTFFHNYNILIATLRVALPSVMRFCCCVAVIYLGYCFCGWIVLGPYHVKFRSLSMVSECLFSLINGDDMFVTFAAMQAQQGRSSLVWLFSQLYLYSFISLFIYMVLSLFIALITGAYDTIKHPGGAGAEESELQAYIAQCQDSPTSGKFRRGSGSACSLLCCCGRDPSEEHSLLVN
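Tet-induced TRPML1-DL cells loaded with Ca8 no-wash calcium dye were read kinetically on FDSS. Compound addition was followed by EC80 agonist 54-4 (4 uM final); inhibition was read over 110 s.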
Menin-MLL FL inh – displaces fluorescein MLL peptide from human menin; Fluorescence polarization, fluorescein-MLL peptide displacement from menin; FP activity change, % at 61.4 µM; 290,000 tested, under 10 active; inconclusive = falling polarisation curve, or a change in total fluorescence; inactive = total fluorescence flat and polarisation flat or rising; no compound was filed as active; the % refers to the polarisation; negative = inhibition;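 further: % of control where 0% means no effect; inhibitors lower the polarisation; unlabelled MLL peptide was the positive control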
TRPML1 ag – agonists of human TRPML1 channel | AID 624414 | TRPML1-expressing cells, Ca2+ dye fluorescence, FDSS; host cell line not named in the record; reference of the full effect not given here | actives 0.12% (n = 410,000) | Q9GZU1 | activation, % (concentration not given with the values); in the data active = activation above about 50%; inconclusive = about 30% to 50%; inactive = below about 30%; further: 0% is about no effect; the text of the record puts the active cut at 80%
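Cells: TRPML1-DL, 1X Tet inducer, ~16 h at 37 degrees C/5% CO2. Dye: ABD Ca8 no-wash + quencher, 45-90 min RT. Read: 10 s baseline, compound add, 110 s agonist phase; 54-4 EC80 (4uM final), 110 s antagonist phase.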
gsp antag – antagonists of gsp mutant (McCune-Albright syndrome) | gsp-mutant cells, cAMP HTRF, 30 min; control for the full effect not named in the record | Potency, µM (series often up to 76.9 µM), for the others: at the top dose activity change, negative = inhibition, most hits filed as inhibitors | actives 0.4% (n = 340,000); active = falling curve of any shape with a large fitted effect; inconclusive = falling curve, mostly with a smaller effect; inactive = flat or rising curve; cell line not stated here;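 further: intracellular cAMP measured with PDE inhibitor Ro 20-1724 present during compound exposure; potency means the concentration at half of the fitted maximal effect; on the % scale 0 is the no-effect control and ±100 the full control effect; nearly all actives have a fitted effect of over 65% in size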
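HTRF cAMP measurement after 30 min RT detection following 30 min, 37C compound treatment alongside […] (added as 300 uM solution) in G418-selected cells seeded at 2000/well and grown 16–24 h.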
ClpP mod – qHTS Assay for Activators of ClpP. ATP-dependent Clp protease proteolytic subunit (Bacillus subtilis (strain 168)), P80244. Potency, µM (highest dose often 57.5 µM), for the others: at the top dose activity change, negative = active. actives 1.9% (n = 340,000). purified B. subtilis ClpP, FRET peptide cleavage, 20 min; active = well fitted falling curve with a large enough effect; inconclusive = small, poorly fitted or top-dose-only effect; inactive = no such curve, though single readings can be large or run the other way; further: potency means the concentration at half of the fitted maximal effect; the source files actives as falling curves though it sought activators and does not explain the sign; nearly all actives have a fitted effect of over 65% in size; many hits overshoot -100%
Target sequence (P80244 whole entry, looked up): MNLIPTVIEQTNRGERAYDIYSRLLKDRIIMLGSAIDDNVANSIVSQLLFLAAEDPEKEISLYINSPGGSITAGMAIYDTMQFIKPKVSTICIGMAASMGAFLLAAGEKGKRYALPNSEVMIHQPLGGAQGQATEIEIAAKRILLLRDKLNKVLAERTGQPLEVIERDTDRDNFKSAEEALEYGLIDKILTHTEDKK
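Buffer: 100 mM Tris/HCl pH8, 100 mM KCl, 0.05% low protease BSA, 2.5% glycerol, 0.01% Tween-20. ClpP 10 microg/mL final; 20 min RT; delta FRET normalized to ADEP and DMSO controls.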
Numbers without * were called inactive; ? = inconclusive; · = no result given; & = joins results of further samples; [ ] = remark or other dose.

SMILES	gsp agonist	TRPML1 blocker	Menin-MLL FL inh	TRPML1 ag	gsp antag	ClpP mod
COC(=O)C1=NN(C(=O)c2cccc(Cl)c2)C(O)(C(C)(C)C)C1 (stereo not drawn)	-4%	-2	-1.3	4.8	-9%	0.5%
COC(=O)c1ccc2nc(C(C)(C)C)c(Cc3ccc(OC)cc3C)n2c1	·	-2	·	-0.2	·	-4.2%
CCNC(=O)CC1C(=O)N(c2ccc(F)cc2)C(=O)N1CCOC (stereo not drawn)	·	22	·	0.9	·	2.5%
Cc1[nH]c(=O)[nH]c(=O)c1N(C)C	11%	-6	-5.0	1.5	11%	0.3%
CCN(C(=O)COC(=O)c1cc(S(=O)(=O)N2CCOCC2)ccc1F)C1CCS(=O)(=O)C1 (stereo not drawn)	-6%	-2	·	0.0	9%	-2.8%
COc1ccc(NS(=O)(=O)c2ccc(-n3nnc4ccccc43)c([N+](=O)[O-])c2)cc1	-35%[inhibitor]	1	-1.1	8.1	-21%	-0.4%
COc1ccc(Cc2nc3ccc(C(=O)N(C)CC4COCCO4)cc3o2)cc1 (stereo not drawn)	?	2	-6.1	0.4	-5%	-6.8%
CCn1c(=O)c2c(nc3n2CCS3)n(C)c1=O	18%	-2	4.1	-0.1	9%	-0.4%
CCCC(C(=O)NC(C)(C)C)N(CCN1CCOCC1)C(=O)CNS(=O)(=O)c1ccccc1 (stereo not drawn)	-14%	-6	1.6	2.0	7%	·
C=CCN(CC=C)C(=O)c1c(OC)cccc1OC	12%	10	4.8	-0.5	6%	1.3%
COc1ccc(NC(=O)CN(C)C(=O)C(NC(=O)c2ccco2)C(C)C)cc1 (stereo not drawn)	-21%	-6	·	-0.6	8%	-4.5%
CC(C)c1ccccc1NC(=O)Nc1ccc2c(c1)OCO2	2%	30	·	0.1	-5%	0.8%
CC(C)(C)S(=O)(=O)/C(C#N)=C/Nc1ccccn1	9%	-3	1.5	1.2	2%	·
O=C(NNc1ncnc2c1cnn2-c1ccccc1)c1cccc(Cl)c1	·	-21	·	1.1	·	-0.1%
Cc1ccc2c(c1)N(CCCC(=O)Nc1cccc(C(F)(F)F)c1)C(=O)CO2	-22%[15.4 µM]	25&8	·	1.3&0.5	-24%	-4.1%
Cc1cc(-c2ccc(C)c(S(=O)(=O)NC(c3cccs3)C(C)C)c2)on1 (stereo not drawn)	·	-11	·	-0.1	·	-1.3%
Cc1ccc(NC(=O)CSc2ccc(-c3cccnc3)nn2)cc1	13%	-19	1.5	-0.2	1%	-2.8%
COc1cccc(C(=O)C2CCCN(C(=O)c3ccccc3Cl)C2)c1 (stereo not drawn)	-22%	3	-0.5	-0.5	-4%	-4.2%
Cc1cccc2c1N(CCCOc1ccccc1)C(=O)C2=O	?	27	14	4.8	7%	-0.8%
COc1ccc(NC(=O)c2nc[nH]c2C(=O)N[C@@H](C)C(=O)OC(C)(C)C)cc1	13µM*	0	1.2	2.3	3%	-2.8%
CC(C)CCSc1nnc(N)s1	2%	3	2.5	0.8	2%	2.2%
COc1cc(C(=O)NCC(=O)n2nc(C)cc2C)cc(OC)c1OC	?	-13	0.9	-1.0	8%	1.9%
O=C(O)C(Cc1ccc(O)c([N+](=O)[O-])c1)N1C(=O)c2ccccc2C1=O (stereo not drawn)	3%	6	·	0.6	0%	0.7%
CC1(C)Oc2ccc(C(=O)N3CCc4ccccc43)cc2N(CC(=O)N2CCCC2)C1=O	-31%[inhibitor]	-19	3.6	-0.9	-21%	0.2%
COc1cc(/C=C/[N+](=O)[O-])ccc1OCc1cccc(C(=O)O)c1	-9%	-11	4.2	-0.2	?	·
O=C(Nc1ccc(Br)cc1F)C1CC(=O)N(C2CCCCC2)C1 (stereo not drawn)	-9%	21	-3.7	-0.5	15%	?
O=C(C1CCC(CNc2c(N3CCCCC3)c(=O)c2=O)CC1)N1CCCC1 (stereo not drawn)	21%	-3	0.3	0.0	4%	-0.1%
COc1ccc(C(=O)N(Cc2cc(OC)c(OC)c(OC)c2)c2ccccn2)cc1	·	21	·	-1.0	·	0.3%
COc1ccc(-c2nc(CN3CCN(c4cc(C)nc(C)c4)CC3)c(C)o2)c2ccccc12	19%	-15	6.5	0.6	22%	·
CCOC(=O)N1CCc2c(sc(NCc3cc(OC)c(OC)cc3OC)c2C(=O)Nc2ccc(OCC)cc2)C1	·	7	·	1.2	·	-4.2%
COc1cc(NC(=O)CCC(=O)N2CCN(S(=O)(=O)c3ccc(C)cc3)CC2)cc(OC)c1	-5%	-11	·	-0.3	-4%	?
COc1cc(NC(=O)COC(=O)c2cnccn2)c(C)cc1[N+](=O)[O-]	-8%[15.4 µM]	?	2.6	1.1	-3%	·
CCOc1cc(N2CCOCC2)c(OCC)cc1NC(=O)C1CC(=O)N(c2ccc(C)cc2)C1 (stereo not drawn)	?	-11	·	-0.4	11%	0.2%
CC1(C(=O)Nc2cccc3ccccc23)CCN1C(=O)C1(c2ccccc2)CCCC1 (stereo not drawn)	·	-5	·	-0.5	·	-7.5%
COc1ccc(-c2nn(-c3ccccc3)cc2/C=C/C(=O)N2CCOCC2)cc1OC	-31%[inhibitor]	43	-1.0	0.6	-23%	·
O=C(NCc1ccccc1CN1CCCC1)C1CCN(S(=O)(=O)c2ccc(Cl)cc2)CC1	-2%	-4	·	0.7	4%	2.1%
Cc1ccc(C2CC(=O)c3cnn(-c4nc(C)cc(C)n4)c3C2)cc1 (stereo not drawn)	-1%[15.4 µM]	21	1.8	2.7	0%	·
CCN(CC)C(=O)c1nc[nH]c1C(=O)N1CCN(c2ccccc2)CC1	·	4	·	-0.6	14%	-0.4%
O=C(Nc1cccc(Br)c1)c1ccc(Cl)c(S(=O)(=O)N2CCOCC2)c1	-12%	-1	8.8	-0.1	40µM*	0.3%
Cc1cccc(-c2nc(C(N)=O)c3c(n2)n(-c2ccc4c(c2)OCO4)c(=O)n3C)c1	·	-4	·	-0.6	·	-9.9%
O=C(CSc1nnc(-c2ccccc2Br)o1)Nc1nncs1	-1%[15.4 µM]	23	-0.6	-0.1	-18%	-21%
Cc1cc(C(=O)Cn2nnc(-c3ccc(Cl)cc3)n2)c(C)n1-c1ccccc1	-1%	-3	6.0	1.2	1%	-18%
Cc1c(C)c2ccc(OC(C)C(=O)N3C[C@H]4C[C@@H](C3)c3cccc(=O)n3C4)c(C)c2oc1=O (stereo partly drawn)	·	·	0.7	·	0%	4.5%
CC(C)n1cnnc1SCC(=O)NCC(=O)Nc1ccc(F)cc1	29%	0	·	-0.7	17%	1.9%
COc1ccccc1-c1noc(CCC(=O)NC2CCCC2)n1	25%	2	·	1.5	13%	-0.5%
Cc1cc(C)c(Cn2c(C(O)c3ccccc3)nc3ccccc32)c(C)c1 (stereo not drawn)	·	18	·	3.0	·	1.5%
COc1ccc(/C(C)=N/NC(=O)c2sccc2-n2cccc2)cc1	9%	40	1.4	2.7	-11%	·
CCOC(=O)N1CCN(Cc2nc3ccc([N+](=O)[O-])cc3c(=O)n2-c2cccc(OC)c2)CC1	0%	1	-3.7	-0.3	?	-0.4%
COc1cc2[nH]c3ccccc3c2cc1C	-2%	6	5.1	0.1	-4%	-9.1%
CC1=CC(C)(C)NC(=S)N1c1ccc2ccccc2c1	-53%&-3%	18&15	2.3	-0.4&0.6	2%&-9%	-0.1%
O=C(CNC(=O)c1ccc(Cl)cc1)NC(CO)c1ccccc1 (stereo not drawn)	-10%	?	1.2	0.9	14%	·
CCOC(=O)c1ccc(NC(=O)CC2C(=O)N(c3ccc(F)cc3)C(=O)N2CCC(C)C)cc1 (stereo not drawn)	-13%	-9	5.9	2.4	-23%	2.0%
CCC(=O)N1CCc2cc(CNC(=O)Cc3ccc(OC)c(OC)c3)ccc21	·	-7	·	0.9	·	-0.3%
COc1ccc(S(=O)(=O)N2CCN(C(=O)[C@H](Cc3ccccc3)NC(=O)c3ccco3)CC2)cc1	?	2	·	1.1	-8%	-2.3%
COc1cccc(CNC(=O)C2CCN(S(=O)(=O)c3ccc4c(c3)CCC(=O)N4)CC2)c1	32%	-16	1.9	0.3	1%	-0.9%
COc1c2c(nc3occc13)C(CC=C(C)C)(OC)C(OC(C)=O)CC2 (stereo not drawn)	0%	22	-0.8	-0.8	-3%	-0.5%
O=S(=O)(Nc1ccc(Cc2ccncc2)cc1)c1ccc(Cl)c(Cl)c1	20%	7	4.5	0.8	?	-1.5%
COc1ccccc1OCCSc1nnc(C)n1-c1ccccc1	9%	10	1.0	4.2	-20%	-2.8%
CC1CCC(NC(=O)C2c3ccccc3C(=O)N2Cc2ccc3c(c2)OCO3)CC1 (stereo not drawn)	0%[15.4 µM]	19	-2.2	2.2	-20%	·
COc1ccc2c(c1)-c1nc(NC(=O)c3ccco3)sc1CC2	-3%	3	5.6	0.3	?	-2.1%

(continued)
SMILES	gsp agonist	TRPML1 blocker	Menin-MLL FL inh	TRPML1 ag	gsp antag	ClpP mod
NNC(=O)c1ccc(COc2ccc(Br)cc2)o1	6%	-12	-15	-0.4	5%	-3.4%
O=C(Nc1cc(Cl)ccc1O)C1CC(c2ccccc2O)=NO1 (stereo not drawn)	-57%[15.4 µM]	-4	1.6	1.9	-11%	0.6%
Cc1nn2c(C(F)(F)F)c3c(nc2c1-c1ccccc1)CCC3	?	-18	0.3	0.7	-5%	-0.4%
O=C(N/N=C\c1ccccn1)c1ccccc1O	-7%[15.4 µM]	-1	-0.2	0.1	-4%	·
O=C(NCc1cccc(Br)c1)C1CC2Cn3c(nc4ccccc43)C2N1Cc1ccccc1 (stereo not drawn)	1%	-10	·	-0.5	-5%	1.2%
COc1cccc(CNS(=O)(=O)c2ccc3c(c2)CC(C)N3C(=O)C2CC2)c1 (stereo not drawn)	-6%	14	3.5	-1.3	-14%	-0.2%
O=C(NCCCN1CCCC1=O)C1CCN(S(=O)(=O)c2cccc(C(F)(F)F)c2)CC1	16%	3	·	0.0	13%	-0.5%
Nc1[nH]c2cc([N+](=O)[O-])ccc2c1-c1ccccn1	-77%[inhibitor]	6	?	11	-16%	-1.2%
O=[N+]([O-])c1ccc(N2CCN(CCO)CC2)cc1Sc1ccccn1	8%[15.4 µM]	2	-3.4	0.1	-2%	·

Looked up one by one from the entries so far (three):
SMILES	gsp agonist	TRPML1 blocker	Menin-MLL FL inh	TRPML1 ag	gsp antag	ClpP mod
Nc1[nH]c2cc([N+](=O)[O-])ccc2c1-c1ccccn1	-77%[inhibitor]	6	?	11	-16%	-1.2%
O=C(Nc1cc(Cl)ccc1O)C1CC(c2ccccc2O)=NO1 (stereo not drawn)	-57%[15.4 µM]	-4	1.6	1.9	-11%	0.6%
O=C(NCc1cccc(Br)c1)C1CC2Cn3c(nc4ccccc43)C2N1Cc1ccccc1 (stereo not drawn)	1%	-10	·	-0.5	-5%	1.2%
